Bioassay records (PubChem)
D2 potentiator = Beta-Arrestin HTS for Positive Allosteric Modulators of the Human D2 Dopamine Receptor: Potentiators | D(2) dopamine receptor (Homo sapiens), P14416 | DiscoveRx D2 beta-arrestin cells, luminescence, 90 min; 100% = 57 uM dopamine signal | potentiation, % (no concentration beside the values) | actives 0.23% (n = 360,000); active = potentiation of 50% or more; inconclusive = 30% to 50%; inactive = 30% or less;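 note: compound concentration not given in the record; tested on top of an EC20 dose of dopamine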
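PathHunter D2 cells, attached overnight at 37 deg C, received compound in DMSO plus dopamine at EC20 (50 nM final) for 90 min at 37 deg C. Beta-arrestin recruitment was read as luminescence after 1 h with detection reagent at ambient temperature.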
PINK1 modulator = A Quantitative High throughput Screen to Identify Chemical Modulators of PINK1 Expression. Potency, µM (series often up to 76.6 µM), without a hit: at the highest dose activation (PINK1 increase), actives largely listed as activators. AID 624263, 2012. actives 0.2% (n = 410,000). PINK1 immunofluorescence, high-content cytometry, 24 h; active = well fitted activation curve with a large enough effect; inconclusive = small, poorly fitted or top-dose-only effect; inactive = flat fitted curve, though single readings scatter; cell line not stated here;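 note: potency is the fitted concentration of half-maximal effect; % of control where 0% means no effect; nearly all actives have a fitted effect of over 65% in size; a mitochondrial uncoupler was the plate control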
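A stable cell line was treated with compounds at 5 concentrations for 24 hours, with CCCP as control. PINK1 levels and mitochondrial localization were measured by immunofluorescence with mitochondrial, cell and nuclear markers after fixation, read by laser-scanning cytometry.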
Six1-Eya2 blk = qHTS Assay for Inhibitors of the Six1/Eya2 Interaction; Homeobox protein SIX1 (Homo sapiens) + Protein phosphatase EYA2 (Homo sapiens), …; AlphaScreen GST-Six1/His-Eya2 binding, biochemical; stronger effect = lower value; control for the full effect not named in the record; activity change, % (test concentration not listed); actives 0.56% (n = 360,000); in the data active = activity change below about -65%; inconclusive = about -30% to -65%; inactive = above about -30%; note: % is set by controls: 0 for no effect and ±100 for the full control effect; compound concentration not given in the record
Target sequence (O00167 whole entry, looked up): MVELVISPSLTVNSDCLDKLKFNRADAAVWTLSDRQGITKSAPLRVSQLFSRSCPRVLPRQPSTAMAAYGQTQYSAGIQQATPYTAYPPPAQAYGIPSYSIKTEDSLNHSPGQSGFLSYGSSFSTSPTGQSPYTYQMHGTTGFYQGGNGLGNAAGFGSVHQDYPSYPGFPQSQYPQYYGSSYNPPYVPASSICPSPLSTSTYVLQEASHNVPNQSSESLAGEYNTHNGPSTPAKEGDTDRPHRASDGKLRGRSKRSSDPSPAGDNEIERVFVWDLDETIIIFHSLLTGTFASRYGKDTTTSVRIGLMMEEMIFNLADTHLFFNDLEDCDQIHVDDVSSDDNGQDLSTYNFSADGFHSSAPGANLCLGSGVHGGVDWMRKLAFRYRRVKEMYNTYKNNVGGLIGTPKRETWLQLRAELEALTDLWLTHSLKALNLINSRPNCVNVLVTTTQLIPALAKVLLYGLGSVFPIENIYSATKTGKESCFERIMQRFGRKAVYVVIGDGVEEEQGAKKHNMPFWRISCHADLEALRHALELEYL
Target sequence (Q15475 whole entry, looked up): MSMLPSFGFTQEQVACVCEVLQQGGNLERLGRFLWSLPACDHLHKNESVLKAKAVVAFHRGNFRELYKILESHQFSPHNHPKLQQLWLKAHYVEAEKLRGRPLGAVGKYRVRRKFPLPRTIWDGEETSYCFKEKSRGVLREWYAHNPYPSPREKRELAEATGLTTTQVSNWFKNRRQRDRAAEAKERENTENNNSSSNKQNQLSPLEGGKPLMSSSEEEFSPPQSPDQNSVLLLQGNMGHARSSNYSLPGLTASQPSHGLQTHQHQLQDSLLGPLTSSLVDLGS
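AlphaScreen luminescence read after one hour at 37 °C in darkness. Pin-transferred compounds met GST-Six1 and His-Eya2 protein (5X stock 250 nM/500 nM) plus glutathione donor and Ni-chelate acceptor beads (5X, 50 ug/mL).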
CtBP-E1A blk = qHTS Assay for Inhibitors of the CtBP/E1A Interaction | CtBP / adenovirus E1A interaction (AlphaScreen) | AlphaScreen GST-E1A/His-CtBP binding, 1536-well; stronger effect = lower value; control for the full effect not named in the record | activity change, % (no concentration beside the values) | actives 0.49% (n = 340,000) | AID 651724, 2012; in the data active means activity change below about -65%; inconclusive means about -30% to -65%; inactive means above about -30%; note: % is set by controls: 0 for no effect and ±100 for the full control effect; compound concentration not given in the record
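Protein mix (5X: 125 nM each GST-E1A, His-CtBP) was incubated with pinned compound 2 h at 37 deg C in dark, in 50 mM Tris pH 8.0 buffer with 300 mM NaCl. Glutathione donor and nickel acceptor beads followed; AlphaScreen signal read after 1 h.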
TRPML1 agonist = qHTS for Agonists of the Human Mucolipin Transient Receptor Potential 1 (TRPML1); Mucolipin-1 (Homo sapiens), Q9GZU1; TRPML1-expressing cells, Ca2+ dye fluorescence, FDSS; host cell line not named in the record; reference of the full effect not given here; activation, % (concentration not given with the values); actives 0.12% (n = 410,000); AID 624414, 2012; in the data active = activation above about 50%; inconclusive = about 30% to 50%; inactive = below about 30%; note: 0% is about no effect; the text of the record puts the active cut at 80%
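Kinetic FDSS Ca2+ read in Tet-induced TRPML1-DL cells (ABD Ca8 dye plus quencher, 45-90 min RT loading): baseline, then compound, then 110 s agonist window; EC80 agonist 54-4 at 4uM final added afterwards for a 110 s antagonist window.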
D2 agonist = Beta-Arrestin HTS for Positive Allosteric Modulators of the Human D2 Dopamine Receptor: Agonists; D(2) dopamine receptor (Homo sapiens), P14416; DiscoveRx PathHunter D2 beta-arrestin, luminescence, 90 min; 100% = 57 uM dopamine signal; activation, % (concentration not given with the values); actives 0.084% (n = 360,000); AID 624465, 2012; in the data active = activation above about 40%; inconclusive = about 15% to 40%; inactive = below about 15%; note: compound concentration not given in the record; the text of the record calls up to 30% inactive
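DiscoveRx PathHunter D2 beta-arrestin cells (2,100/well) attached overnight, then compound-stimulated 90 min at 37 C in HBSS/10 mM HEPES/0.1% Tween-20 buffer; beta-galactosidase complementation read by luminescence after 1 h at ambient temperature. Dopamine 57 uM final (EC100) as control.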
An asterisk follows results filed as active; ? = inconclusive; nt = no result given; & = joins results of further samples; [ ] = dose if it differs, or a comment.

SMILES	D2 potentiator	PINK1 modulator	Six1-Eya2 blk	CtBP-E1A blk	TRPML1 agonist	D2 agonist
CCCCCOc1ccc(NC2=CC(=O)CCC2)cc1	-7	1.8%	-1	0	0.0	1.7
CC(=O)[C@@H]1[C@@H]2C(=O)N(c3ccccc3F)C(=O)[C@@H]2[C@H]2c3ccccc3C=NN12	-6	-1.3%	-21	-28	-0.1	-4.4
CC1CCC2(CC1)NC(=O)N(Cc1cccc(C(F)(F)F)c1)C2=O (stereo not given)	10	1.7%	13	0	0.7	2.5
O=C(Cn1c[n+](CC(=O)c2ccc([N+](=O)[O-])cc2)cn1)c1ccc([N+](=O)[O-])cc1	-27&1	16%&13%	-4&8	-4	0.2	-1.4&13
CC1(C)C(=S)N(Cc2ccccc2)c2ccccc21	63*	13%	-1	nt	nt	6.4
Cc1ccc(-c2c[n+]3c(n2-c2ccccc2)CCC3)cc1	-25	2.0%	8	0	0.4	-0.8
COc1ccccc1NC(=S)NC(=O)CCc1ccccc1	-11	-0.5%	-6	-2	0.8	4.6
COc1ccccc1CNC(=O)CCNC(=O)C1CCN(S(=O)(=O)c2ccccc2)CC1	12	-0.6%	3	6	-0.1	-2.3
CCOCCCNC(=O)Cn1nc(Cc2ccncc2)c2ccccc2c1=O	0	0.1%	7	4	0.3	-1.3
CCN(CC)c1ccc(NC(=O)C2CC3CCC2C3)cc1 (stereo not given)	-18	0.7%	?	-15	-0.3	-2.8
CCOC(=O)C1C(=O)C=C(c2ccc(C)cc2)CC1c1ccco1 (stereo not given)	-11	-1.1%	0	-2	2.7	-4.8
c1ccc(CCNc2ccccn2)nc1	-12	-0.3%	11	0	0.0	-1.3
O=C(Oc1ccccc1)c1cccc2cccc(C(=O)Oc3ccccc3)c12	-19	5.6%	16	nt	1.5	-5.6
CCc1ccc(C(=O)N2CCC(c3nc4ccccc4s3)CC2)cc1	-22	-2.9%	-1	-8	3.4	-0.9
CCOc1ccccc1NC(=O)c1ccc2c(c1)C(=O)N(CC(C)C)C2=O	-20	12%	-12	-9	0.4	2.9
COC(=O)c1ccccc1COn1c(=O)c(C)[n+]([O-])c2ccccc21	23	-0.8%	-1	-2	-1.2	-2.2
Cc1ccc(NC(=O)c2ccc(Cl)c(S(=O)(=O)NCc3ccco3)c2)c(O)c1	-5	2.2%	-15	-2	2.3	1.7
CCOC(=O)c1ccc(NC(=O)N2C3CCCC2CC(NC(C)=O)C3)cc1 (stereo not given)	-4	0.0%	5	11	0.2	-5.7
O=C1N=c2ccccc2=C1c1[nH]c(=S)[nH]c1O	-11	?	?	3	0.2	-5.1
COc1ccc(C)cc1NC(=O)COC(C)=O	-14	-0.6%	0	-11	0.7	0.0
Cc1ccccc1NC(=O)CSc1nc2[nH]c(=O)cc(O)c2s1	-10	0.8%	-6	-6	-0.3	-1.5
Cc1cc(C)c(/C([O-])=C(/C(=S)Nc2ccc(SC(F)F)cc2)[n+]2ccccc2)cc1C	7	2.2%	-7	9	1.1	5.4
COc1ccc(C(=O)Nc2ccccc2NC(=O)c2ccc(OC)cc2)cc1	-9	1.0%	0	nt	-1.2	-6.0
Cc1cc(C)n(-c2ccc(Cl)c(C(=O)O)n2)n1	-55	-1.6%	12	-13	0.8	-18
CCN(CC)C(=O)CSc1nc(-c2ccco2)cc(C(F)(F)F)c1C#N	-14	-1.2%	0	5	0.9	-2.8

Additional results
SMILES	D2 potentiator	PINK1 modulator	Six1-Eya2 blk	CtBP-E1A blk	TRPML1 agonist	D2 agonist
COc1ccccc1-c1nc(S(=O)(=O)c2ccccc2)c(N2CCCCC2)o1	-2	0.9%	-3	-3	-0.5	-2.6
CC1CCN(S(=O)(=O)c2cc([N+](=O)[O-])ccc2Cl)CC1	6	2.4%	-7	nt	1.5	?
Cc1cc(=O)oc2c1c(C(F)(F)F)nn2-c1ccccc1	-20	3.9%	-2	nt	-0.7	-3.4
CNCCCOc1cc(C)cc(C)c1C	-18	-2.1%	17	-13	0.0	-0.7
CCOC(=O)c1cnn(C)c1NC(=O)c1ccc(Cl)cc1Cl	-4	3.0%	-6	-13	-1.3	-0.6
O=C(Nc1ccc(CN2CCOCC2)cc1)c1ccc2ccccc2c1	-22	0.8%	-5	9	0.9	1.5
COc1ccc2nc(N3C(=O)C(O)=C(C(=O)c4ccco4)C3c3ccc(C)o3)sc2c1 (stereo not given)	7	-0.6%	-11	?	3.6	3.7
Cc1ccc(C)c(N2CCN(C(=O)CCc3nc(-c4cccc(Cl)c4)no3)CC2)c1	-2	1.0%	5	0	-0.7	-1.2
Cc1cc(C)c(-n2nnnc2SCC(=O)c2cccs2)c(C)c1	-4	3.0%	6	6	1.0	-1.4
Cc1cc(C)cc(NC(=O)c2ccc(S(=O)(=O)N(C)CC3CCCO3)cc2)c1 (stereo not given)	7	1.6%	-2	0	0.4	-0.3
COCCN(C(=O)COC(=O)CSc1ccc2ccccc2c1)c1c(N)n(Cc2ccccc2)c(=O)[nH]c1=O	-4	-0.3%	-3	3	-0.6	0.7
C=C(C)COc1ccc(-c2n[nH]c(C)c2-c2ccccc2)c(O)c1	4	9.8%	0	0	0.2	3.4
COC(=O)CNC(=O)COC(=O)c1ccc(OC)c([N+](=O)[O-])c1	-5	1.6%	3	2	-0.2	-5.2
O=C(Nc1ccccc1N1CCN(C(=O)c2ccc(Cl)cc2)CC1)c1ccc([N+](=O)[O-])o1	?	-1.7%	-27	-27	1.0	12
CC(=O)COc1cc(C)cc2oc(=O)cc(-c3ccccc3)c12	-5	-0.7%	-2	nt	0.0	-7.2
Cc1cc2oc(C(=O)NCCc3ccc(S(N)(=O)=O)cc3)cc(=O)c2cc1C	6	5.5%&3.3%	7	5	-0.5&0.1	1.2
COc1cccc(CN(C)Cc2cc(=O)oc3c(C)c(C)ccc23)c1	-2	0.1%	7	12	3.9	-3.1
CNC(=O)c1c(NC(=O)CCS(=O)(=O)c2ccccc2)sc2c1CCN(C(=O)OC)C2	-22	0.9%	0	6	-0.4	-4.4
COc1ccc(NC(=S)Nc2ncccc2C)c(OC)c1	0	nt	?	-10	0.8	0.0
CCOC(=O)c1cc2sc(C)cc2n1CC(=O)NCc1ccc(F)cc1	-16	12%[38.3 µM]	18	45	1.9	-1.2
CCN1CCCC(OC(=O)C(c2ccccc2)c2ccccc2)C1 (stereo not given)	-27	1.2%	-1	-1	0.1	-4.6
CC1C(=O)N2CCCc3cc(NC(=O)C(=O)NCCN4CCOCC4)cc1c32 (stereo not given)	4	1.6%	4	-3	0.3	-1.5
CCC(=O)c1ccc(Oc2ccc(C(=O)c3ccc(C)cc3)cc2[N+](=O)[O-])cc1	-17	-0.9%	8	14	0.0	-3.2
Cc1ccc([N+](=O)[O-])cc1S(=O)(=O)Nc1cccc(S(=O)(=O)NC2=NCCC2)c1	-25	-0.3%	3	8	-0.3	-2.1
CCCCN(C=O)c1c(CC)nc2ccc(C(=O)N(C)Cc3ccco3)cn12	-4	2.1%	-10	1	-0.9	-5.1

Continued.
SMILES	D2 potentiator	PINK1 modulator	Six1-Eya2 blk	CtBP-E1A blk	TRPML1 agonist	D2 agonist
CCCn1c(SCC(=O)Nc2ccc(OC)cc2[N+](=O)[O-])n[nH]c1=O	14	0.8%	1	5	-1.5	-1.5
CC(NC(=O)COC(=O)c1cc(=O)[nH]c2ccccc12)c1ccccc1 (stereo not given)	-9	3.1%	-10	-2	0.5	-2.7
CC1(C(=O)Nc2nc3ccc(S(C)(=O)=O)cc3s2)CC1(Cl)Cl (stereo not given)	-5	-1.0%	4	5	-0.1	0.3
COc1cccc(C2Nc3cc(Cl)c(S(N)(=O)=O)cc3S(=O)(=O)N2)c1 (stereo not given)	-3	-0.6%	3	3	-0.7	-1.7
CC(=O)c1c(C)[nH]c(C(=O)OCC(=O)N(C)C)c1C	-12	nt	3	3	0.7	-1.0
Cc1c(C(=O)N(C)Cc2ccc(F)cc2)sc(=O)n1Cc1ccccc1C#N	1	0.8%	0	3	-0.5	9.9
Cc1cc2nnn(-c3nnc(-c4ccccc4)c4ccccc34)c2cc1C	-17	9.2%	5	5	0.0	-2.0
CC1(C)C/C(=N/Nc2ccc([N+](=O)[O-])cc2[N+](=O)[O-])C(C)(C)O1	4	-0.3%	-5	-15	-0.8	-6.6
Cc1ccc2c(c1)N(CC(=O)NC1CCC(C)CC1)C(=O)c1cccnc1O2 (stereo not given)	-4	0.0%	2	-2	0.8	-1.0
O=C(C(=O)N1CCOCC1)c1cn(CCOc2ccccc2)c2ccccc12	-1	0.6%	-2	2	-0.7	0.9
COc1cc(/C=C/C(=O)OCC(=O)c2c(N)n(C)c(=O)n(C)c2=O)ccc1O	-4	-0.5%	-21	?	0.8	-1.2
CCC(=O)NC(=S)Nc1ccc(-c2nc3ccccc3s2)cc1	-9	1.1%	6	14	-0.4	-1.5
COc1ccc(CCN2CNc3c(c(=O)n(C)c(=O)n3C)C2)cc1OC	-1	1.9%	-2	-3	-0.7	-2.5
COc1ccccc1NC(=O)CSc1nc2ccccc2c(=O)n1CC1CCCO1 (stereo not given)	-7	1.1%	3	-11	0.2	1.5

Sorted by SMILES length (low to high): some entries from above
SMILES	D2 potentiator	PINK1 modulator	Six1-Eya2 blk	CtBP-E1A blk	TRPML1 agonist	D2 agonist
c1ccc(CCNc2ccccn2)nc1	-12	-0.3%	11	0	0.0	-1.3
CCOC(=O)C1C(=O)C=C(c2ccc(C)cc2)CC1c1ccco1 (stereo not given)	-11	-1.1%	0	-2	2.7	-4.8
CCN(CC)C(=O)CSc1nc(-c2ccco2)cc(C(F)(F)F)c1C#N	-14	-1.2%	0	5	0.9	-2.8
O=C(Cn1c[n+](CC(=O)c2ccc([N+](=O)[O-])cc2)cn1)c1ccc([N+](=O)[O-])cc1	-27&1	16%&13%	-4&8	-4	0.2	-1.4&13

Ordered by the number under CtBP-E1A blk (highest first): 4 of the compounds above
SMILES | D2 potentiator | PINK1 modulator | Six1-Eya2 blk | CtBP-E1A blk | D2 agonist
O=C(Nc1ccc(CN2CCOCC2)cc1)c1ccc2ccccc2c1 | -22 | 0.8% | -5 | 9 | 1.5
CNC(=O)c1c(NC(=O)CCS(=O)(=O)c2ccccc2)sc2c1CCN(C(=O)OC)C2 | -22 | 0.9% | 0 | 6 | -4.4
C=C(C)COc1ccc(-c2n[nH]c(C)c2-c2ccccc2)c(O)c1 | 4 | 9.8% | 0 | 0 | 3.4
CCOC(=O)c1cnn(C)c1NC(=O)c1ccc(Cl)cc1Cl | -4 | 3.0% | -6 | -13 | -0.6
